Assay outcomes (PubChem BioAssay)
FBPA Giardia inh = inhibitors of Giardia lamblia fructose-1,6-bisphosphate aldolase; A8B2U2; purified Giardia FBPA; Potency, µM (highest dose often 59.6 µM), for inactives: top-dose activity, negative = inhibition, actives largely listed as inhibitors; 290,000 tested, 0.71% active; further: nearly all actives have a fitted effect of over 55% in size
Target sequence (A8B2U2 whole entry, looked up): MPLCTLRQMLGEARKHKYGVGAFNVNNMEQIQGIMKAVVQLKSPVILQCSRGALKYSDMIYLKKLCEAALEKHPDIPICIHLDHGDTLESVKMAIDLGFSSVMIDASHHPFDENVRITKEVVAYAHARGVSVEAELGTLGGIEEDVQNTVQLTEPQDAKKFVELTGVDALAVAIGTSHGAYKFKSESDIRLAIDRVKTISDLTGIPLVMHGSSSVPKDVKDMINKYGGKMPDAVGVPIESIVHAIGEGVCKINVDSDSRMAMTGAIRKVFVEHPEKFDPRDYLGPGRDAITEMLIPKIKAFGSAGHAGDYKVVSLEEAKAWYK
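Giardia FBPA (40 nM reagent) was preincubated 10 min at RT with compound (up to 57.5 uM final), then substrate plus GAPDH/TPI/NAD/arsenate coupling system with diaphorase/resazurin was added; resorufin fluorescence (525/598 nm) was read after 20 min.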
AMA1 RON2 block = AMA1-RON2 (P. falciparum) interaction inhibition; AlphaScreen AMA1-biotinylated RON2 peptide binding; Potency, µM (series often up to 58.2 µM), for the others: top-dose activity change, negative = inhibition, most hits filed as inhibitors; 360,000 tested, 0.2% active; AID 720542;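 further: 0% = vehicle wells and -100% = peptide control; nearly all actives have a fitted effect of over 45% in size; some results filed as inactive show a strong effect at the top dose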
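AMA1 (3D7) with his tag at 25 nM final met compounds first, then biotinylated RON2 peptide at 25 nM; detection used donor plus acceptor beads, 10 µg/mL apiece, read by AlphaScreen after 30 min at room temperature.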
An asterisk follows results filed as active; . = no result given; & = joins results of further samples; [ ] = dose if it differs, or a comment. The call rests on the fitted dose curve; in most records, active means well fitted curve in the direction sought with a large enough effect; inconclusive means small, poorly fitted or top-dose-only effect, or another doubt; inactive means no such curve, though single readings can be large; an effect the other way counts as inactive or inconclusive. Unless noted, on the % scale 0 is the no-effect control and ±100 the full control effect; potency means the concentration at half of the fitted maximal effect. The list is partial, and most or all hits are left out here.

compound: CC(=O)N1CCN(c2ccc(OC[C@H]3CO[C@](Cn4ccnc4)(c4ccc(Cl)cc4Cl)O3)cc2)CC1
- FBPA Giardia inh = 2%&14%&12%&-1%&10%
- AMA1 RON2 block = -7%
compound: CC1CC2C3CCC4=CC(=O)C=CC4(C)C3(F)C(O)CC2(C)C1(O)C(=O)CO (stereo not drawn)
- FBPA Giardia inh = 5%
- AMA1 RON2 block = -1%
compound: COc1ccc2cc(C(C)C(=O)O)ccc2c1 (stereo not drawn)
- FBPA Giardia inh = 7%&10%&22%
- AMA1 RON2 block = -10%
compound: O=C(O)[C@H](O)[C@@H](O)C(=O)O
- FBPA Giardia inh = .
- AMA1 RON2 block = 14%
compound: COc1cc(/C=C/C(=O)/C=C(O)/C=C/c2ccc(O)c(OC)c2)ccc1O
- FBPA Giardia inh = -8%&-21%
- AMA1 RON2 block = 103%[activator]
compound: Cc1ccc(/C(=C/CN2CCCC2)c2ccccn2)cc1
- FBPA Giardia inh = 4%
- AMA1 RON2 block = .
compound: C[C@]12C[C@H](O)[C@H]3[C@@H](CCC4=CC(=O)CC[C@@]43C)[C@@H]1CC[C@@H]2C(=O)CO
- FBPA Giardia inh = -19%
- AMA1 RON2 block = -6%
compound: CC12CCC(=O)C=C1CCC1C2CCC2(C)C(O)CCC12 (stereo not drawn)
- FBPA Giardia inh = 4%
- AMA1 RON2 block = 1%
compound: C[C@]12C=CC(=O)C=C1CC[C@@H]1[C@@H]2[C@@H](O)C[C@@]2(C)[C@H]1CC[C@]2(O)C(=O)CO
- FBPA Giardia inh = 22%
- AMA1 RON2 block = 4%
compound: CN1CCC[C@H]1c1cccnc1
- FBPA Giardia inh = -3%&7%
- AMA1 RON2 block = -12%&4%
compound: Cc1c(C(=O)NN2CCCCC2)nn(-c2ccc(Cl)cc2Cl)c1-c1ccc(I)cc1
- FBPA Giardia inh = 4%&-16%&-6%
- AMA1 RON2 block = .
compound: CC(C)n1c(/C=C/[C@@H](O)C[C@@H](O)CC(=O)O)c(-c2ccc(F)cc2)c2ccccc21
- FBPA Giardia inh = -3%
- AMA1 RON2 block = -14%
compound: Cc1cnc(C(=O)NCCc2ccc(S(=O)(=O)NC(=O)NC3CCCCC3)cc2)cn1
- FBPA Giardia inh = 5%
- AMA1 RON2 block = -9%
compound: CN(C)CCN(Cc1cccs1)c1ccccn1
- FBPA Giardia inh = -2%
- AMA1 RON2 block = 10%

Retrieved by structure from above:
compound: CN(C)CCN(Cc1cccs1)c1ccccn1
- FBPA Giardia inh = -2%
- AMA1 RON2 block = 10%
compound: CC12CCC(=O)C=C1CCC1C2CCC2(C)C(O)CCC12 (stereo not drawn)
- FBPA Giardia inh = 4%
- AMA1 RON2 block = 1%
compound: CN1CCC[C@H]1c1cccnc1
- FBPA Giardia inh = -3%&7%
- AMA1 RON2 block = -12%&4%

As entered above.
AMA1 RON2 block, CN(C)CCN(Cc1cccs1)c1ccccn1 stands at 10%
FBPA Giardia inh, CC(C)n1c(/C=C/[C@@H](O)C[C@@H](O)CC(=O)O)c(-c2ccc(F)cc2)c2ccccc21 stands at -3%
FBPA Giardia inh, CC12CCC(=O)C=C1CCC1C2CCC2(C)C(O)CCC12 (stereo not drawn) stands at 4%
AMA1 RON2 block, CC(=O)N1CCN(c2ccc(OC[C@H]3CO[C@](Cn4ccnc4)(c4ccc(Cl)cc4Cl)O3)cc2)CC1 stands at -7%
AMA1 RON2 block, CN1CCC[C@H]1c1cccnc1 stands at -12%&4%
FBPA Giardia inh, CC1CC2C3CCC4=CC(=O)C=CC4(C)C3(F)C(O)CC2(C)C1(O)C(=O)CO (stereo not drawn) stands at 5%
FBPA Giardia inh, C[C@]12C[C@H](O)[C@H]3[C@@H](CCC4=CC(=O)CC[C@@]43C)[C@@H]1CC[C@@H]2C(=O)CO stands at -19%
